# Source: PubChem
# UCH37 DUB inh: inhibitors of human UCH37 deubiquitinase, primary screen, biochemical, Ub-AMC cleavage, fluorescence | 330,000 compounds, 0.33% hits | purified proteasome/UCH37 | Ubiquitin carboxyl-terminal hydrolase isozyme L5 (Homo sapiens), Q9Y5K5 | inhibition, % (concentration not given with the values);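 active means mean of two replicates above 20%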;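 further: 0% = compound-free wells with enzyme and 100% = wells lacking proteasome; stock transfer was 100 nL into about 20 µL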
# Target sequence (Q9Y5K5 whole entry, looked up): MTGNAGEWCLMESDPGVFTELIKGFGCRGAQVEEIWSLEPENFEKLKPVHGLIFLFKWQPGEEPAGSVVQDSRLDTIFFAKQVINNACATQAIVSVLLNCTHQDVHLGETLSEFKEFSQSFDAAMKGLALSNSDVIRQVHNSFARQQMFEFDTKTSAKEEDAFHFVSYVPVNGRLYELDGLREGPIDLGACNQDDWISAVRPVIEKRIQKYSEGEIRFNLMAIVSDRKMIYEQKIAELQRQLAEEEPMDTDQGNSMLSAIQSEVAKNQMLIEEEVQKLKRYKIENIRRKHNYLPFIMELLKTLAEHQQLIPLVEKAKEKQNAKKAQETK
#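 Assay system: Proteasome-bound UCH37. Buffer or medium: pH 7.4 Tris-HCl (50 mM) with ovalbumin, ATP-MgCl2, DTT. Incubation: 30 min preincubation with enzyme, 25 min cleavage at room temperature. Measured by: fluorescence, ex 355 nm, em 460 nm. Read-out basis: percent inhibition. Control set: wells without proteasome as full block, compound-free enzyme plus substrate as uninhibited.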
# E coli growth: E. coli growth inhibition, primary screen, OD600. Escherichia coli growth, 23 h; stronger effect = lower value. OD600 absorbance (test concentration not listed). 330,000 compounds, 0.21% hits. AID 1053175, 2014;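 active means OD600 absorbance below the run mean of sample wells minus 3.6 SD, in any replicate, cut at about 0.56 in these data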;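 further: stock transfer was 300 nL into about 60 µL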
# FGF22 binding: binders of human FGF22 protein, primary screen, FGF22 synaptogenesis inhibitor project, biophysical, thermal shift, single point. 340,000 compounds, 1.5% hits. calls only at 9.99 µM. AID 651658, 2012. recombinant FGF22 thermal shift, SYPRO orange fluorescence; percent of sucrose octasulfate shift, DMSO zero;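 active means melting point raised past a set limit in the mean and every replicate; three in four hits are not shown here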
# Target sequence (Q9HCT0 whole entry, looked up): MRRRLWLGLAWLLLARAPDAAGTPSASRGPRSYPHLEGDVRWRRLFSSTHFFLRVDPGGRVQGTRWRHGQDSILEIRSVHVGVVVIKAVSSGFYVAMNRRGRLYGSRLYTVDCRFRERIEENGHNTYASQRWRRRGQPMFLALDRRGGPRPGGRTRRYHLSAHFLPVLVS
# Beta2AR agonist: beta2AR agonists driving receptor internalization, primary screen, cell-based, FAP fluorogen, flow cytometry; Beta-2 adrenergic receptor (Homo sapiens), P07550; Am2.2-beta2AR cells; reference of the scale not given here; response, % (test concentration not listed); 340,000 compounds, 0.43% hits; AID 504454, 2011;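 active means response above a set limit, near 3 SD of response in nonfluorescent compounds, cut at about 42% in these data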;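 further: stock transfer was 100 nL into about 11 µL; a reference agonist was the positive control; negative values mostly stem from fluorescent compounds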
# ALR inh: inhibitors of human ALR sulfhydryl oxidase, primary screen, biochemical, H2O2 detection, HRP-luminol luminescence, single point; 290,000 compounds, 3.8% hits; inhibition, % (no concentration beside the values); AID 485317, 2010; purified ALR, DTT oxidation;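 active means mean and each replicate at 75% or more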;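 further: stock transfer was 7.5 nL into about 7.5 µL; 0% = neutral wells and 100% = wells with inactivated enzyme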
# HNF4A DNA FP: change in binding of human HNF4A to DNA, primary screen, biochemical, fluorescence polarization, FITC-DNA. Hepatocyte nuclear factor 4-alpha (Homo sapiens), P41235. 1 h. activity change, % at 10 µM. 360,000 compounds, 0.3% hits; in the data active means activity change above about 30%, passing the limit was not always enough;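 further: controls were the assay level and a saturating level of protein; the project sought stronger binding though the title names inhibitors; some compounds called inactive have numbers as strong as hits; positive values seem to mean higher polarization but the record does not say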
# Target sequence (P41235 whole entry, looked up): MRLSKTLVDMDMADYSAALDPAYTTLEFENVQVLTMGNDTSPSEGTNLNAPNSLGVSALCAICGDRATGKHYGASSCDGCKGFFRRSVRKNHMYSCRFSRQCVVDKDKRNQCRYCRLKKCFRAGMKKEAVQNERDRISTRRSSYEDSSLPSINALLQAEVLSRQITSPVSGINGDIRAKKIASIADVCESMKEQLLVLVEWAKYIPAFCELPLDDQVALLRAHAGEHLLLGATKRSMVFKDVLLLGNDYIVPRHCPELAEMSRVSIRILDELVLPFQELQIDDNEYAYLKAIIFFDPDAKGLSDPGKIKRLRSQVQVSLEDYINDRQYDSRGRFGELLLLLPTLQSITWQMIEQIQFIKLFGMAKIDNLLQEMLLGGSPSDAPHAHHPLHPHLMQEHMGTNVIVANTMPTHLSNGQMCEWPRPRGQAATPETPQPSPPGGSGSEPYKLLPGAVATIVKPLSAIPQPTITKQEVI
# rRNA inh HTS: reduced GFP signal of wild-type E. coli, primary screen, bacterial rRNA inhibitor project, GFP/RFP fluorescence, OD600, single point. AID 720706, 2013. GFP signal change (wild-type ribosome), % (no concentration beside the values). 350,000 compounds, 1.6% hits. E. coli WT GFP vs humanized-ribosome RFP mutants, 24 h; stronger effect = lower value; DMSO median 0, no signal -100;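 active means significant combined selectivity score with lowered wild-type GFP, culture density cut under 30%, mutant RFP and density less affected; inactive means any of these conditions unmet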; further: one replicate is shown; some compounds called inactive have numbers as strong as hits
# rRNA inh HTS OD600: recorded beside rRNA inh HTS, whose call it bears; OD600 change, %; measured here: OD600 growth;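 optical density of the mix in the first replicate; 0 = DMSO median and -100 = no signal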
# rRNA inh HTS RFP: also measured in rRNA inh HTS; calls as there; RFP signal change, %; measured here: RFP humanized mutant strains;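 first replicate; 0 = DMSO median and -100 = no signal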
# * = called active by the depositor; i = inactive; · = not tested or not shown; & = joins results of further samples.
1	O=C(COCc1nc2ccccc2c(=O)[nH]1)NC1CCCC1
2	Cc1ccc(Nc2ncnc3c2cnn3C)cc1
3	CN(Cc1ccc2c(c1)OCO2)C(=O)c1cc(-c2ccccc2)c(N2CCOCC2)s1
4	CC(C)(C)c1ccc(C(=O)N/C(=C\c2ccco2)C(=O)O)cc1
5	CCC(C)(C)NC(=O)C(c1ccc(OC)cc1)N(Cc1ccco1)C(=O)CCC(=O)Nc1cc(C)on1 (stereo not drawn)
6	COc1ccc2nc(NC(=O)CSc3ccccc3)sc2c1
7	COn1c(-c2ccc(Cl)cc2)nc2ccc(Cl)cc21
8	Cc1nc2ccc(S(=O)(=O)NCC(=O)N3CCC(C)CC3)cc2s1
Compound	1	2	3	4	5	6	7	8
UCH37 DUB inh	1.6	0.0	0.3	4.4	5.8	0.5	2.2	3.1
E coli growth	0.68	0.67	0.71	0.67	0.67	0.76	0.66	0.72
FGF22 binding	·	i	i	i	·	·	·	·
Beta2AR agonist	-3	-1	7	3	-1	9	-10	-12
ALR inh	9	·	0	9	1	-48	-5	-21
HNF4A DNA FP	1.2	-1.4	-4.6	-7.0	3.4	0.3	2.5	-1.2
rRNA inh HTS	·	1	-12	-2	·	·	·	·
rRNA inh HTS OD600	·	0	-19	2	·	·	·	·
rRNA inh HTS RFP	·	-2.5	-0.5	1.4	·	·	·	·

9	C[C@]12C=CC(=O)C=C1CC[C@@H]1C2=CC[C@]2(C)[C@@H](C(=O)CN3CCN(c4cc(N5CCCC5)nc(N5CCCC5)n4)CC3)CC[C@@H]12
10	Cc1ccc(NC(=S)NC(=O)/C=C/c2ccco2)c(O)c1
11	COC(=O)C1CCN(C(=O)/C=C/c2ccccc2)CC1
12	COc1cccc(NC(=O)CSc2nnc(Cc3ccc(OC)c(OC)c3)o2)c1
13	CCCCn1c(N)c(N(CC(C)C)C(=O)CN2C(=O)NC3(CC(C)CC(C)(C)C3)C2=O)c(=O)[nH]c1=O (stereo not drawn)
14	O=C(Nc1nc(-c2ccccc2)ns1)c1cccs1
15	FC(F)(F)c1ccc(N2CCOCC2)c(NC2=NCCCCC2)c1
16	CCn1nc(NC(=O)CC(C)C)c2cc3cccc(C)c3nc21
Compound	9	10	11	12	13	14	15	16
UCH37 DUB inh	11	1.4	2.6	-1.2	5.6	3.4	4.7	-472
E coli growth	·	0.66	0.68	0.7	0.69	0.62	0.73	0.69
FGF22 binding	i	i	i	i	i	i	·	i
Beta2AR agonist	11	-7	7	5	11	-1	5	9
ALR inh	21	40	-1	-28	-19	88*	·	-1
HNF4A DNA FP	5.7	14	0.4	-0.9	-3.0	1.5	-2.4	0.1
rRNA inh HTS	-5	2	0	1	2	-38*	·	-3
rRNA inh HTS OD600	-13	4	0	-3	-3	-19*	·	0
rRNA inh HTS RFP	4.8	2.0	0.6	-4.3	4.0	-6.1*	·	-0.9

17	CC(C)C(=O)N1CCN(c2ccc(NC(=O)c3ccc([N+](=O)[O-])o3)cc2)CC1
18	COc1ccc(C(=O)NCCC2=CCCCC2)cc1[N+](=O)[O-]
19	COCCN(CCOC)C(=O)c1ccc(NS(=O)(=O)c2ccc3c(c2)OCCO3)cc1
20	CN(C)c1cccc(N=C2C=C(N3CCOCC3)CC(C)(C)C2)c1
21	COCCCn1c(C)nnc1SCC(=O)Nc1cccc(C)c1
22	COC(=O)c1nnn(-c2nonc2N)c1CSc1nnc(C)s1
23	COc1ccc(NC(=O)CSc2nnc(-c3ccccn3)n2N)c(OC)c1
24	COc1ccc(NC(=O)COC(=O)CC23CC4CC(CC(C4)C2)C3)c([N+](=O)[O-])c1
Compound	17	18	19	20	21	22	23	24
UCH37 DUB inh	4.4	3.8	1.9	9.3	1.7	4.6	1.5	4.2
E coli growth	0.69	0.66	0.69	0.7	0.7	0.67	0.61	0.71
FGF22 binding	i	i	i	·	i	i	·	·
Beta2AR agonist	4	-3	-2	7	-2	9	4	-7
ALR inh	·	-4	0	18	-7	-5	-17	-2
HNF4A DNA FP	3.8	-2.0	2.5	0.1	-1.5	2.5	4.0	-1.2
rRNA inh HTS	5	-22*	3	·	8	22	·	·
rRNA inh HTS OD600	13	-10*	4	·	-2	17	·	·
rRNA inh HTS RFP	-4.9	-1.1*	0.0	·	3.9	-0.2	·	·

25	CNS(=O)(=O)c1ccc(OC)c(-c2nnc3c4ccccc4c(C)nn23)c1
26	Cc1ccc(-c2nnn(CC(=O)NCC3CC3)n2)o1
27	Cc1ccc(S(=O)(=O)c2nnn3c2nc(N2CCN(c4ccccn4)CC2)c2ccccc23)cc1
28	Cc1ccccc1-n1c(SCC(=O)N2CCC(C(=O)O)CC2)nnc1-c1ccncc1
29	CCc1ccccc1NC(=O)c1cc2sccc2n1C
30	Cc1cc2c(cc3c(=O)n(CC(=O)NCCCN4CC(C)CC(C)C4)ncn32)s1 (stereo not drawn)
31	Cn1c(SCc2ccccc2C#N)nc2ccccc2c1=O
32	Cc1ccc(S(=O)(=O)N2CCC[C@H]2C(=O)OCC(=O)Nc2ccc3c(c2)OCO3)cc1
Compound	25	26	27	28	29	30	31	32
UCH37 DUB inh	-4.1	0.0	-58	4.8	3.6	0.2	2.9	1.9
E coli growth	0.76	0.66	0.73	0.67	0.76	0.67	0.65	0.67
FGF22 binding	·	·	i	i	i	i	i	i
Beta2AR agonist	-3	3	-2	3	6	-10	7	-2
ALR inh	-2	-2	-3	4	1	-5	5	-2
HNF4A DNA FP	0.7	-1.7	-0.3	1.8	-0.4	0.3	3.7	-1.8
rRNA inh HTS	·	·	0	1	-23	14	4	-7
rRNA inh HTS OD600	·	·	0	12	-47	4	4	-25
rRNA inh HTS RFP	·	·	-4.0	0.2	-1.2	-1.1	21	4.8

33	COc1ccccc1CNC(=O)N/C=C/c1ccc(Cl)cc1
34	COc1cccc(NC(=O)CN(C)CC(=O)NC(C)c2ccccc2)c1 (stereo not drawn)
35	Nc1ccc(-c2cc(NC=O)c3ncc(-c4cccc(C(F)(F)F)c4)n3c2)cn1
36	Cn1c(C(=O)O)c(CC(=O)NCC2COc3ccccc3O2)c2ccccc21 (stereo not drawn)
37	COc1ccc(C2C(C(C)=O)=C(C)Nc3ncnn32)cc1 (stereo not drawn)
38	CC(C)(C)OC(=O)C[C@@H]1C/C=C\C[C@@H](CC(=O)N(CCO)Cc2ccccc2)C(=O)N[C@H](Cc2c[nH]c3ccccc23)COC1=O
39	COc1cc(/C=C/C(=O)OCC(=O)NCCc2ccc(S(N)(=O)=O)cc2)ccc1OCC#N
40	Cn1cc(CNC(=O)C2CCC(=O)N(Cc3ccccc3F)C2)cn1 (stereo not drawn)
Compound	33	34	35	36	37	38	39	40
UCH37 DUB inh	2.2	0.8	·	-2.9	5.5	2.6	-24	-1.3
E coli growth	0.66	0.7	·	0.67	0.67	·	0.66	0.66
FGF22 binding	i	i	i	·	i	i	i	i
Beta2AR agonist	-3	-7	·	0	-9	-2	5	-3
ALR inh	·	-15	·	-2	11	0	·	4
HNF4A DNA FP	-0.4	-3.0	11	1.8	-0.1	-2.2	-2.0	2.0
rRNA inh HTS	12	1	-5	·	5	3	-2	-1
rRNA inh HTS OD600	5	-7	-10	·	4	-8	-10	-5
rRNA inh HTS RFP	0.4	-2.9	2.8	·	-1.8	-8.7	-0.7	-0.5

41	Cc1cc(C(=O)Nc2ccc(Nc3ccccc3)cc2)ccc1[N+](=O)[O-]
42	O=C(CCNS(=O)(=O)/C=C/c1ccccc1)NCCc1c[nH]c2ccccc12
43	CC(O)Cc1nsc(NC(=O)c2ccc(Br)o2)n1 (stereo not drawn)
44	CCOC(=O)N1CCN(C(=O)COc2ccc3ccccc3c2Br)CC1
45	COCCNS(=O)(=O)c1cc(-c2nn(C)c(=O)c3ccccc23)ccc1C
46	O=C(O)CCC(=O)N1CCN(c2ncccn2)CC1
47	CCOC(=O)C1CCN(c2nnc(N3CCCC3=O)s2)CC1
48	C=CCn1c(SCC(=O)c2c(N)n(C)c(=O)n(C)c2=O)nc2sc(C)c(C)c2c1=O
Compound	41	42	43	44	45	46	47	48
UCH37 DUB inh	4.3	3.7	6.9	3.8	4.4	-0.3	3.2	5.2
E coli growth	0.67	0.64	0.73	0.66	0.72	0.72	0.69	0.73
FGF22 binding	i	i	·	i	·	i	·	·
Beta2AR agonist	9	-2	3	-10	3	-6	4	13
ALR inh	·	9	3	-32	-5	-3	0	-1
HNF4A DNA FP	-2.1	4.3	1.5	2.9	-1.8	2.2	0.4	0.4
rRNA inh HTS	-3	-8	·	-5	·	14	·	·
rRNA inh HTS OD600	8	-15	·	-8	·	-10	·	·
rRNA inh HTS RFP	-2.5	1.2	·	1.1	·	1.2	·	·

49	CCOC(=O)c1c(/N=C/N(C)C)sc(C)c1C
50	Cn1c(N)c(C(=O)COC(=O)c2cc3ccccc3cc2O)c(=O)n(C)c1=O
51	COCCn1c(=O)[nH]c2cc(C(=O)N3CCN(c4cccc(Cl)c4)CC3)ccc2c1=O
52	CCCN(CC(=O)Nc1ccccc1C)C(=O)c1ccc2[nH]c3c(c2c1)CC(C)CC3 (stereo not drawn)
53	O=C(NCc1ccco1)c1cc(Cl)nc(Cl)c1
54	O=C(c1ccccc1N(Cc1ccccc1)S(=O)(=O)c1ccccc1)N1CCOCC1
55	C/C(=N/NC(=O)c1ccc2c(c1)OCO2)c1ccc(Br)s1
56	CCOc1ccccc1NS(=O)(=O)c1ccc2c(c1)n(C)c(=O)c(=O)n2C
57	CCOC(=O)/C=C1\SCC(=O)N1CC(=O)Nc1ccc(OC)c(OC)c1
58	Cc1cc(=O)n2c(n1)OC(CO)C2 (stereo not drawn)
59	CC(C)COC(=O)N(C)C[C@H]1OCc2cnnn2CCCC(=O)N([C@@H](C)CO)C[C@H]1C
Compound	49	50	51	52	53	54	55	56	57	58	59
UCH37 DUB inh	·	2.5	3.6	-1.2	-2.6	2.5	·	4.8	0.4	3.0	·
E coli growth	·	0.71	0.67	0.69	0.67	0.67	·	0.7	0.71	0.7	·
FGF22 binding	i	i	i	i	i	i	i	·	·	i	i
Beta2AR agonist	5	14	3	18	1	13	-4	-2	3	0	·
ALR inh	2	-11	·	-1	-1	·	-15	-7	-26	-1	·
HNF4A DNA FP	0.7	9.4	0.4	-2.2	0.6	0.6	4.3	-1.2	-0.3	2.0	-1.3
rRNA inh HTS	2	4	-7	·	2	-3	3	·	·	13	9&-2
rRNA inh HTS OD600	-4	-1	-19	·	4	-7	7	·	·	15	0&-3
rRNA inh HTS RFP	2.1	1.4	-0.6	·	-2.7	-1.4	-1.6	·	·	-1.3	-0.8&0.8

# Whole records, looked up by structure. Order of screens: UCH37 DUB inh	E coli growth	FGF22 binding	Beta2AR agonist	ALR inh	HNF4A DNA FP	rRNA inh HTS	rRNA inh HTS OD600	rRNA inh HTS RFP
# COCCN(CCOC)C(=O)c1ccc(NS(=O)(=O)c2ccc3c(c2)OCCO3)cc1 reads 1.9	0.69	i	-2	0	2.5	3	4	0.0
# Cn1c(C(=O)O)c(CC(=O)NCC2COc3ccccc3O2)c2ccccc21 (stereo not drawn) reads -2.9	0.67	·	0	-2	1.8	·	·	·

# The list is partial; rates above refer to the full screens.
